High-throughput results deposited in PubChem by Johns Hopkins Ion Channel Center.
KCNQ2 enhance: potentiators of rat KCNQ2 potassium channel. O88943. CHO-K1 KCNQ2, FluxOR thallium flux fluorescence; stronger effect = higher value. B-score at 10 µM. hit rate 0.54% among 310,000;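 active = fluorescence ratio B-score at least 3 SD of library B-scores, with initial fluorescence B-score within 3 SD, cut at about 5.3 in these data; same plate scores as AID 2156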;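 also: B-score of peak minus minimum over baseline fluorescence ratio after K+ and Tl+ stimulus; positive B-score means potentiation of KCNQ2 with more thallium influx and brighter signal; only the inactives scoring about 0 or higher are listed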
Target sequence (O88943 whole entry, looked up): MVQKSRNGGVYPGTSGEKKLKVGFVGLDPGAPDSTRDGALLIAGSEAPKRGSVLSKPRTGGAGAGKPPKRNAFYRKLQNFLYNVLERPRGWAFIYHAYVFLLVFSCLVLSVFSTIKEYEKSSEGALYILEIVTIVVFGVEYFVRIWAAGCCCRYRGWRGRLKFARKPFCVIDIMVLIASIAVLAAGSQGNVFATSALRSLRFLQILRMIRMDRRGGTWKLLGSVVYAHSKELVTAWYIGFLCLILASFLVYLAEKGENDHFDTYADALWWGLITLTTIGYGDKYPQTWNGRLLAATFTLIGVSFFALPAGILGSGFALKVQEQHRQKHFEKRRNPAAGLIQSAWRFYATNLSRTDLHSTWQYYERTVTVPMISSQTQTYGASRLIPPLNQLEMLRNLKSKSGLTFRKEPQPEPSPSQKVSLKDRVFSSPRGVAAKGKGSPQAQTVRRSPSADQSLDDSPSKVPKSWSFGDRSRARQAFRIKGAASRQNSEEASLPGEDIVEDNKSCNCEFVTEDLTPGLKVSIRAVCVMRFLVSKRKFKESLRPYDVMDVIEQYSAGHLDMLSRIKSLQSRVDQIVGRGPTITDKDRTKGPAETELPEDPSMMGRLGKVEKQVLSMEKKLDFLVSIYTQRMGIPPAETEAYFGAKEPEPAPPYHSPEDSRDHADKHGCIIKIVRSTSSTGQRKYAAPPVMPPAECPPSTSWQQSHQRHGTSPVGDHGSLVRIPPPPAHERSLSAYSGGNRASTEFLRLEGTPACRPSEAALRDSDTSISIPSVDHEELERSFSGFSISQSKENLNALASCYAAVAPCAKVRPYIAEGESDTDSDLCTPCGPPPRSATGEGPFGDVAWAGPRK
KCNQ2 enhance baseline: recorded beside KCNQ2 enhance, whose call it bears; B-score; compound at 10 µM; measured here: initial fluorescence intensity artifact check;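 brightness before thallium and not channel activity; 0 = typical well and far values either way flag optical interference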
* hit, by the source's call.

KCNQ2 enhance	KCNQ2 enhance baseline	SMILES
0.41	-0.07	CCOc1ccc(-n2c([S-])c(C(=O)Nc3ccc(S(=O)(=O)N4CCOCC4)cc3)[n+]3cc(C(N)=O)ccc23)cc1
0.05	-2.23	CC(C)CCN1C(=O)c2ccc(C(=O)Nc3cccc(S(N)(=O)=O)c3)cc2C1=O
0.68	0.62	C/C(=N\Nc1ccccc1)c1cc2ccccc2oc1=O
0.36	-0.25	NC(=S)N/N=C/c1ccc(-c2ccc(Cl)c(Cl)c2)o1
0.01	-0.02	COc1cccc(NC(=O)CCSc2nnc3scc(-c4ccccc4)n23)c1
0.08	-0.18	O=C(CC(C(=O)N1CCc2ccccc21)n1ccnc1)NCC1CCCO1 (stereo not given)
0.87	-0.11	CCn1c(SCC(=O)N2CCN(c3ccccc3)CC2)nc2c([nH]c3ccccc32)c1=O
0.18	0.75	CCOC(=O)c1c(C)n(C)c2c1cc(OC(C)=O)c1ccccc12
0.11	-1.55	COc1ccc(NC(=O)c2ccc(NS(=O)(=O)c3c(C)noc3C)cc2)cc1OC
0.58	0.4	COc1cc(C(=O)NCCc2cc3c(OC)ccc(OC)c3[nH]c2=O)cc(OC)c1OC
0.56	-2.03	CCOc1ccc(Nc2oc(-c3ccco3)nc2C#N)cc1
0.14	-0.01	O=C(C(Cc1ccccc1)NS(=O)(=O)c1cccc2cccnc12)N1CCc2ccccc21 (stereo not given)
0.67	-0.8	CCc1cccc(NS(=O)(=O)c2cccc3cccnc23)c1
0.22	0	Cc1cccc(C(C)(C)C)c1OCCN1CCCC1
0.65	1.16	O=C(Nc1ccc2c(c1)OCO2)Oc1ccccc1
0.83	-1.48	C=CCn1c(NC(=O)c2ccc(Br)o2)c(S(=O)(=O)c2ccccc2)c2nc3ccccc3nc21
0.59	1.83	COc1cc(CC(=O)Nc2ccc(S(=O)(=O)Nc3ncccn3)cc2)cc(OC)c1OC
1.58	-1.19	COCCNC(=O)C(c1cccs1)N(C(=O)Cn1nnc2ccccc21)c1cccc(C(C)=O)c1 (stereo not given)
0.04	2.61	O=C(CSc1nncs1)NC(=O)NCc1ccco1
0.61	-0.28	O=C(COC(=O)CCC(=O)c1cccs1)Nc1cccc(S(=O)(=O)N2CCOCC2)c1
1.84	-0.09	Cc1ccc(Cl)cc1N1CCN(C(=O)CN2C(=O)c3cccc4cccc2c34)CC1
1.02	-1.07	NC(=O)Nc1ccc(C(=O)OCC(=O)Nc2cccc(S(=O)(=O)NC3=NCCCCC3)c2)cc1
0.41	-2.95	Cc1cc(-c2ccc(C)c(S(=O)(=O)N3CCN(C(=O)c4ccco4)CC3)c2)on1
0.63	0	CC(=O)c1cnc2scnn2c1=O
1.07	-0.7	S=C(Nc1ccc(Cl)c(Cl)c1)NC1CCN(Cc2ccccc2)CC1
1.03	1.95	O=C(NC1CCCCCC1)C1CCC(=O)N(Cc2ccccc2F)C1 (stereo not given)
0.84	-0.71	Cc1ccc(CCN2CC(C(=O)NCCN(C)C)CC2=O)cc1 (stereo not given)
0.28	0.04	CCOC(=O)c1csc(-n2nc(C)cc2C(F)(F)F)n1
0.74	2.59	COC(=O)[C@H](Cc1ccccc1)NC(=O)Nc1ccc(S(N)(=O)=O)cc1
0.89	-1.39	CCC(=O)N1CCc2cc(S(=O)(=O)N3CCN(c4cc(Cl)ccc4C)CC3)ccc21
1.03	-0.05	CCCCOc1ccc(-c2nc(SCC(N)=O)n[nH]2)cc1
0.09	-2.36	Cc1ccc(/C=C/C(=O)N2CCN(S(=O)(=O)c3cccs3)CC2)o1

Single records, as listed above.
COC(=O)[C@H](Cc1ccccc1)NC(=O)Nc1ccc(S(N)(=O)=O)cc1 is listed as KCNQ2 enhance: 0.74; KCNQ2 enhance baseline: 2.59
CCOC(=O)c1csc(-n2nc(C)cc2C(F)(F)F)n1 is listed as KCNQ2 enhance: 0.28; KCNQ2 enhance baseline: 0.04

Going on with the list:
KCNQ2 enhance	KCNQ2 enhance baseline	SMILES
0.01	0.62	Cc1nnc(SCC(=O)Nc2ccccc2N2CCOCC2)s1
1.63	0.86	CCOC(=O)CNC(=O)c1ccc(OCC(F)(F)F)cc1
0.59	0.12	COC(=O)[C@H](Cc1ccccc1)[C@@H](C)OS(N)(=O)=O
2.15	-0.31	COc1ccc2[nH]c(=O)c(-c3nnn(-c4ccc(Cl)nc4)n3)cc2c1
0.31	-2.16	CC(=O)Nc1ccc(C(=O)COC(=O)CCS(=O)(=O)c2ccccc2)cc1
1.21	-0.12	CC(=O)OC(COc1ccccc1)Cn1cnc2cc(C)c(C)cc21 (stereo not given)
2.18	-0.46	CCc1c(C)nc2c(-c3ccccc3)c(C)nn2c1Nc1ccc(NC(C)=O)cc1
0.77	-0.76	COc1ccccc1NC(NC(=O)c1ccccn1)C(Cl)(Cl)Cl (stereo not given)
0.66	-0.7	COc1ccc(C2=NS(=O)(=O)N(C)C(C(=O)NCc3cccs3)=C2)cc1OC
0.03	-0.61	CCN(CC)c1ccc(C(=O)OCC(=O)NCC2CCCO2)cc1 (stereo not given)
1.11	0.07	CC1(C)Cc2[nH]c3ccccc3c2C(C)(C)N1
0.7	-0.49	COc1ccccc1CNC(=O)CCNC(=O)C1CCN(S(=O)(=O)c2ccccc2)CC1
1.1	2.29	CCCc1nnc(NC(=O)CCCC(=O)O)s1
0.03	-1.39	Cc1ccc(N(CC(=O)NCc2ccco2)C(=O)CNS(=O)(=O)c2ccccc2)c(C)c1
0.22	0.04	CCOc1ccc(C(=O)NCc2ccco2)cc1Cl
1.41	1.9	C=CCNC(=O)c1cc(-c2ccccc2O)on1
0.24	-0.37	CC(=O)C(Cc1ccccc1)(Cc1ccccc1)C(C)=O
0.59	0.03	COc1ccc(NC(=O)c2ccc(S(=O)(=O)C(F)F)cc2)c(OC)c1
2.16	-2.44	Cc1ccc(NC(=O)Nc2cccnc2)cc1Cl
2.57	0.29	CC1CCc2c(sc(NC(=O)CN3CCN(C(=O)c4ccco4)CC3)c2C#N)C1 (stereo not given)
1.24	-0.54	Cc1ccc(C)c(S(=O)(=O)NC(C)C(=O)Nc2ccc(-c3nc4ccccc4s3)cc2)c1 (stereo not given)
0.19	-0.83	CC1C[N+](=C2C=C(N3CCOCC3)CC(C)(C)C2)CC(C)O1 (stereo not given)
0.31	0.11	Cc1nc(NC(=O)c2ccncc2)sc1C(=O)N(C)C
0.75	-1.72	COc1ccc(CNS(=O)(=O)c2ccc(-n3cnnn3)c(C)c2)cc1
0.23	1.05	Cc1ccc(NC(=O)C2CCN(C(=O)c3ccccc3C)CC2)cc1
1.78	1.48	Nc1cccc2c1C(=O)N(C(=O)c1ccc(S(=O)(=O)N3CCCCCC3)cc1)C2=O
0.03	1.09	Cc1ccc(-n2c(Cc3ccccc3)n[nH]c2=S)cc1
2.14	-1.29	Cc1cc(C)c(NC(=O)c2c[nH]c(=S)n2-c2ccc(F)cc2)c(C)c1
0.07	-0.82	CCn1cc(C(=O)N2CCN(c3ccccc3F)CC2)c(=O)c2ccc(C)nc21
1.74	-1.3	O=C(CSc1ncccn1)NNC(=O)c1ccccc1
0.17	-0.72	O=C(Oc1ccc(C(=S)N2CCOCC2)cc1)c1ccccc1F
1.13	-0.72	Cc1ccc(-c2nn3c(C)nnc3s2)cc1NC(=O)c1ccco1

The closing 6 records of the part above are carried over, then new ones follow.
KCNQ2 enhance	KCNQ2 enhance baseline	SMILES
0.03	1.09	Cc1ccc(-n2c(Cc3ccccc3)n[nH]c2=S)cc1
2.14	-1.29	Cc1cc(C)c(NC(=O)c2c[nH]c(=S)n2-c2ccc(F)cc2)c(C)c1
0.07	-0.82	CCn1cc(C(=O)N2CCN(c3ccccc3F)CC2)c(=O)c2ccc(C)nc21
1.74	-1.3	O=C(CSc1ncccn1)NNC(=O)c1ccccc1
0.17	-0.72	O=C(Oc1ccc(C(=S)N2CCOCC2)cc1)c1ccccc1F
1.13	-0.72	Cc1ccc(-c2nn3c(C)nnc3s2)cc1NC(=O)c1ccco1
0.86	0.09	COc1ccc2c(c1OC)c(=O)n1c3ccc(OC(C)C(=O)NCCCN4CCOCC4)cc3c3ccnc2c31 (stereo not given)
4.56	-3.23	Cc1ccc(OCC(=O)NNC(=S)NC(=O)c2ccc(Br)o2)c(C)c1
0.01	-0.24	Cc1cc(C)nc(NC(=O)c2ccc(Cl)c([N+](=O)[O-])c2)n1
0.05	0.03	O=C(Nc1cccc(S(=O)(=O)c2cccc(NC(=O)C3CC3)c2)c1)C1CC1
0.04	1.17	Cc1ccc(-n2c(=O)cc(N3CCN(Cc4ccccc4)CC3)[nH]c2=O)cc1
0.76	1.46	O=C(NC1C(=O)NNC1c1ccccc1)c1ccc(F)cc1 (stereo not given)
0.21	0.4	O=C(N1CCCC1)C(F)(F)Oc1ccc(F)cc1
0.81	0.48	Cc1nnc(SCC(=O)Nc2sc3c(c2C#N)CCCC3)[nH]c1=O
0.14	0.94	CCCCN(C)CCNC(=O)CN1C(=O)CSc2ccc(S(=O)(=O)N3CCCC3)cc21
0.15	-0.5	S=C1NC2=C(CCC/C2=C\c2ccccc2)C(c2ccccc2)N1 (stereo not given)
0.35	0.84	Cc1ccc(C)c(C(C)NC(=O)CC#N)c1 (stereo not given)
0.15	0.21	O=C(Cn1ccc([N+](=O)[O-])n1)NCc1ccccc1
0.82	-0.77	Cn1c(CSc2ncccn2)nnc1SCC(=O)N1CCCCCC1
0.7	1.24	COc1cc(C2CC(=O)Oc3c(C(CCN4CCN(c5ccccc5)CC4)c4ccc(N(C)C)cc4)c(OC)cc(OC)c32)cc(OC)c1OC (stereo not given)
0.01	0	Cc1cc(=O)n(CC(C)O)c(O)c1C#N (stereo not given)
3.5	-1.61	CC(NC(=S)Nc1ccc(OC(F)F)cc1)c1ccc(F)cc1 (stereo not given)
0.49	1.07	Clc1ccc(Cn2cc(/C=N/n3cnnc3)c3ccccc32)cc1
1.33	0.63	O=C(NCc1ccccc1)c1ccc(Br)cc1Br
0.6	1.86	CCCOc1ccc(C(=O)NCCC(=O)NCCCC(=O)O)cc1
1.49	-0.68	O=C(CCn1nnc2ccccc2c1=O)N[C@@H](Cc1ccccc1)C(=O)O
1.09	-1.33	Cc1cc(C)c2c(NC(=S)NC(=O)c3ccccc3)nn(C)c2n1
0.87	2.09	COc1cccc(-c2nc(CS(=O)(=O)CC(=O)NCCCN3CCc4ccccc4C3)c(C)o2)c1
1.21	-1.36	Cc1ccc2c(c1)NC(=O)C(CC(=O)NCCCN1CCCC1=O)O2 (stereo not given)
0.11	1.32	CCCCn1c(N)c(N(Cc2ccccc2OC)C(=O)C(C)Oc2ccc(F)cc2)c(=O)[nH]c1=O (stereo not given)
0.41	-1.02	C=CCn1c(C)cc(C(=O)COC(=O)C2CC(=O)N(Cc3ccccc3)C2)c1C (stereo not given)
0.02	-0.22	CCc1noc(C)c1C(=O)Oc1ccc(N(C)S(=O)(=O)c2ccccc2)cc1
0.85	0.66	COc1ccc(S(=O)(=O)NCc2cccnc2)cc1C(=O)NC1CCCCC1
0.02	-1.23	Cn1cc2c(=O)n(/N=C/c3ccccc3)cnc2n1
0.5	1.77	NC(=O)c1ccccc1NC(=O)CCN1C(=O)c2ccccc2C1=O
0.77	0.81	COC(=O)c1cccn(CC(=O)c2ccc(Cl)cc2)c1=O
0.42	-1.01	NNc1nc(-c2ccccc2Cl)nc2sc3c(c12)CCCC3
0.82	1.47	NS(=O)(=O)c1ccc(NC(=O)COc2cccc3ccccc23)cc1
1.41	0.11	COC(=O)c1ccc(S(=O)(=O)N(CCO)Cc2ccccc2)n1C
0.7	0.07	COC(=O)c1sc(-c2cccs2)cc1NC(=O)/C=C/C(=O)O
1.76	2.1	CN(Cc1ccccc1)C(=O)C1CCN(Cc2ccc(F)cc2)CC1
0.24	1.43	COc1cccc(-n2nc3c(=O)n(Cc4ccccc4Cl)nc(C)c3c2C)c1
1.12	-1.82	O=C(CSc1nc2nc(-c3cccs3)cc(C(F)(F)F)c2c(=O)[nH]1)C(F)(F)F
0.64	0.21	CCCCc1nc2c(=O)[nH]c3ccccc3c2o1
1.62	-0.94	Cc1nc2ccc(N=NC3=C(O)CCCC3=O)cc2s1
3.07	-0.89	Cc1cc(Br)ccc1SCC(=O)Nc1cccnc1
2.98	0.32	O=C(c1cc(COc2ccc3ncccc3c2)on1)N1CCCC(O)C1 (stereo not given)
1.27	-0.25	CCC(=O)Nc1ccccc1-c1nc2ccccc2[nH]c1=O
0.8	-0.11	O=C(COC(=O)c1cccnc1Cl)NCc1ccc2c(c1)OCO2
0.79	1.8	Cc1ccc(NC(=O)Cn2cncc2-c2ccc([N+](=O)[O-])cc2)cc1C
2.19	-0.17	C=CCn1cccc(C(=O)Nc2ccc(OC)cc2)c1=O
1.1	0.8	Cn1c(SCC(=O)Nc2ccc3c(c2)oc2ccccc23)nnc1-c1ccccc1

These rows are one share of the data; the hit share may differ from the screen's.
